Bioassay records deposited in PubChem by National Center for Advancing Translational Sciences (NCATS).
A488 autofl – compound autofluorescence in A488 spectral region. compound autofluorescence, A488 spectral region, dye equivalency; stronger effect = higher value. max dye equivalency, M. 59,000 tested, 0.1% active. AID 591; active = above 10 nM dye equivalent; inconclusive = 1 to 10 nM; inactive = 1 nM or less; about half of its hits are not listed in these tables;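 further: highest value over a series up to 38 µM; compound alone in buffer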
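Readout is A488 dye-equivalent concentration, calibrated by a per-plate six-point Alexa 488 series. Compounds in 100 mM Tris buffer pH 8.0 were incubated 15 min at room temperature. Plates were imaged using 480 nm excitation/540 nm emission filters.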
TSHR agonist – activates the human thyroid stimulating hormone receptor | HEK293-CNG-TSHR cells (CNG channel as cAMP sensor), membrane potential dye, cAMP | Potency, µM (doses to about 57.1 µM), inactives show at the top dose activation, most hits filed as activators | 73,000 tested, 0.48% active; active = well fitted activation curve of enough size with the parental cells flat; inconclusive = any curve in the parental cells; inactive = parental cells flat and receptor cells flat or falling; further: potency means the concentration at half of the fitted maximal effect; % of control where 0% means no effect; weak receptor curves with flat parental cells got no call and are not listed
Target sequence (P16473 whole entry, looked up): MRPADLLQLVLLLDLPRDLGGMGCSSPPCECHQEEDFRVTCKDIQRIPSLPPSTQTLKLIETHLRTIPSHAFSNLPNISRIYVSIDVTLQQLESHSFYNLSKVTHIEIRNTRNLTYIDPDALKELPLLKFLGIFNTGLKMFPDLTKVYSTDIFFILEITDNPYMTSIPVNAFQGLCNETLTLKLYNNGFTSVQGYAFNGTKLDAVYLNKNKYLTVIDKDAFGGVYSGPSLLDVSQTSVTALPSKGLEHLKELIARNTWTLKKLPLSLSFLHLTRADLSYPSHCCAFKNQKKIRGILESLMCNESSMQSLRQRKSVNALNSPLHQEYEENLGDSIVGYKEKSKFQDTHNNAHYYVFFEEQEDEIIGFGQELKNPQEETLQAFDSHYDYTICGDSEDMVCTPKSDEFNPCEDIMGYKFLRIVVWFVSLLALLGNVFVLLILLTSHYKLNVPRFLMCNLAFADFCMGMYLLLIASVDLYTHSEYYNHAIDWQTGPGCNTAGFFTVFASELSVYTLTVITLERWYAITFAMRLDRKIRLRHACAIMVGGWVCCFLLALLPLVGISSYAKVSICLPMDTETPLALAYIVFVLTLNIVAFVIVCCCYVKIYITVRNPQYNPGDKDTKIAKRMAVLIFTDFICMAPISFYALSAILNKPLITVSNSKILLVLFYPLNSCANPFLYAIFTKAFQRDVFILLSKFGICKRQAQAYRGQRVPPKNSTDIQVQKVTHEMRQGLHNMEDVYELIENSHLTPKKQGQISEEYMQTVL
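HEK 293 cells stably expressing TSHR and a modified CNG channel, with CNG-only parental cells as counterscreen, were preloaded 60 min at room temperature with membrane potential dye containing 100 uM RO 20-1724. Compound exposure was 30 min, and depolarization was read as fluorescence at 590 nm.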
Resorufin autofl – resorufin region autofluorescence; Compound fluorescence, resorufin region 547/598 nm, buffer; stronger effect = higher value; max dye-equivalent concentration, M; 59,000 tested, 0.04% active; active = above 10 nM dye equivalent; inconclusive = 1 to 10 nM; inactive = 1 nM or less; a few of its hits are not listed in these tables; further: highest value over a series up to 38 µM
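Intrinsic fluorescence profiled in the resorufin window (ex 547 nm, em 598 nm) after 15 min at room temperature in pH 8.0 Tris buffer (100 mM); responses normalized against a six-point resorufin standard series as dye-equivalent concentration.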
A647 autofl – A647 region autofluorescence | Compound fluorescence, A647 channel (570/671 nm), Tris buffer | max dye-equivalent concentration, M | 59,000 tested, under 10 active | AID 592; active means above 1 µM dye equivalent; inconclusive means 0.1 to 1 µM; inactive means 0.1 µM or less;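 further: values scaled relative to a standard on each plate; highest value over a series up to 38 µM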
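Buffer was dispensed, compounds and Alexa 647 standards were pin-transferred, and plates sat 15 min at room temperature. Intensity at 570/671 nm was then converted to dye-equivalent concentration using the plate's A647 standard curve.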
AID923 – qHTS Assay for Allosteric/Competitive Inhibitors of Caspase-1: Spectroscopic Profiling in AFC Spectral Region; Potency, µM (series often up to 57.5 µM), without a hit: top-dose fluorescence increase, actives largely listed as activators; compound fluorescence, AFC spectral region (405/520 nm); almost no hit is shown here; 75,000 tested, 1.1% active; active means well fitted activation curve with a large enough effect; inconclusive means small, poorly fitted or top-dose-only effect;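 further: potency means the concentration at half of the fitted maximal effect; 0% is about no effect; scaled to a free AFC standard on each plate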
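Baseline compound fluorescence (AFC region, 405 nm ex/520 nm em) taken from the intercept of kinetic reads with 50 nM caspase-1 and 5 uM Ac-WEHD-AFC; normalized to an on-plate AFC standard curve; compounds titrated up to 57 uM.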
Numbers without * were called inactive; i = inactive; ? = inconclusive; / = not tested or not shown; [ ] = another dose, or the depositor's remark.

A first look (2 entries):
SMILES	A488 autofl	TSHR agonist	Resorufin autofl	A647 autofl	AID923
CCCCOc1ccc(NC(=O)CSCC(=O)OCC)cc1	i	-9%	i	3.1e-08	-0.5%
O=C(CS(=O)CC(=O)N(CC(=O)NC1CCCC1)C1CCCCC1)Nc1ccc(F)cc1 (stereo not drawn)	i	-1%	i	5.8e-09	0.0%

The listing, from the first entry:
SMILES	A488 autofl	TSHR agonist	Resorufin autofl	A647 autofl	AID923
CCCCOc1ccc(NC(=O)CSCC(=O)OCC)cc1	i	-9%	i	3.1e-08	-0.5%
O=C(CS(=O)CC(=O)N(CC(=O)NC1CCCC1)C1CCCCC1)Nc1ccc(F)cc1 (stereo not drawn)	i	-1%	i	5.8e-09	0.0%
CCOC(=O)c1ccc2nc3c(cc2c1)CCS3	i	-10%	i	1e-09	-0.5%
CCc1ccc(OC(=O)c2ccn(CC)n2)cc1	i	0%	i	2e-08	0.5%
CCOc1ccc(N=C2SC(C(=O)O)CC(=O)N2C)cc1 (stereo not drawn)	i	4%	i	1e-09	-1.0%
CC(=O)Nc1ccc(S(=O)(=O)NCC2CCC(C(=O)NCCC(C)C)CC2)cc1 (stereo not drawn)	i	-1%[11.4 µM]	i	8e-09	-1.1%
COC1=Cc2c(ccc3ccc(=O)oc23)OC1(C)C	/	?	/	/	-0.6%
O=C(C1CCC(CNS(=O)(=O)c2cccc3cccnc23)CC1)N1CCCC1 (stereo not drawn)	/	?	/	/	-1.0%
COc1ccc(OCCNC(=O)c2ccccc2OCC(=O)N2CCCCC2)cc1	i	?	i	2.9e-08	1.6%
CC(=O)c1coc2ccc(OCCN3CCCCC3)cc12	/	?	/	/	2.6%
O=C(Nc1ccccn1)C1CCN(S(=O)(=O)c2cccs2)CC1	i	?	i	4.2e-08	0.0%
COc1ccc(N2CCN(C(=O)CSc3nc4cc(OC)c(OC)cc4cc3C#N)CC2)cc1	i	4%	i	2.1e-09	5.9%
CC(C)Cn1c(=O)c(C(=O)Nc2cnccn2)c(O)c2ccccc21	i	3%	i	5.2e-08	0.4%
CC(=O)c1ccc(NC(=O)C2CCCN2S(=O)(=O)c2cccc3cccnc23)cc1 (stereo not drawn)	/	-9%	/	/	-1.5%
CC1CCN(S(=O)(=O)c2cccc(C(=O)Nc3ccccn3)c2)CC1	/	25µM*	/	/	-0.8%
O=S(=O)(NCc1cccnc1)c1cccc2nsnc12	i	/	i	1.7e-08	/
COc1ccc(OC)c(S(=O)(=O)Nc2ccc(O)c3ccccc23)c1	i	4%	i	1.2e-09	1.0%
CCC(Sc1nc(=O)cc(N)n1CCc1ccccc1)C(=O)Nc1ccccc1C#N (stereo not drawn)	i	1%	i	1.5e-08	0.4%
CC(C)(C)Nc1cccccc1=O	i	-4%	i	2.9e-08	2.0%
Cc1cccc(N2CC(C(=O)O)CC2=O)c1 (stereo not drawn)	i	5%	i	2.6e-08	-4.6%
CC(c1ccccc1)C1C(C#N)=C(N)SC(N)=C1C#N (stereo not drawn)	i	-11%	i	1e-09	-0.4%
COc1ccccc1N1CCN(CCC(=O)Nc2ccc3c(c2)OCO3)CC1	/	?	/	/	-1.1%
CCN(C#N)c1nc(NC(C)C)nc(NC(C)C)n1	i	8%	i	2.4e-08	-1.1%
Cn1c(SCc2ccccc2)nnc1-c1cccs1	i	15%	i	4.2e-09	-0.9%
O=C(Nc1ccccc1)Nc1ccccn1	i	-5%	i	6.4e-09	1.2%
Going on with the list.
SMILES	A488 autofl	TSHR agonist	Resorufin autofl	A647 autofl	AID923
Cc1ccc(-n2nnc3ccccc3c2=O)cc1C	/	-11%	/	/	0.3%
CSc1ccc(C2C(C#N)=C(N)Oc3cc4c(cc32)OCO4)cc1 (stereo not drawn)	i	/	i	2.5e-08	9.9%
CC(C)c1ccc(N(CC(=O)O)S(=O)(=O)c2cccnc2)cc1	/	4%	/	/	-1.1%
CCCCCNC(=O)c1c(N)n(/N=C/c2ccco2)c2nc3ccccc3nc12	i	/	i	6.5e-09	/
Cn1c(=O)c2c(nc(NCc3ccc4c(c3)OCO4)n2C)n(C)c1=O	i	19%	i	6.4e-08	-1.9%
C=CCc1ccccc1OCCn1ccnc1	i	6%	i	6.1e-09	0.2%
COc1ccc(Oc2ncc3nc(-c4ccc(F)cc4)c(=O)n(C[C@H]4CCCO4)c3n2)cc1	i	?	i	1.5e-08	14%
C=CCn1c(C2CC(=O)N(c3ccc(C)cc3)C2)nc2ccccc21 (stereo not drawn)	i	/	i	1e-09	/
O=C(NCCCN1CCCCC1)C1CCC(=O)N1CCc1ccccc1 (stereo not drawn)	i	?	i	1e-09	-0.9%
CN(C)CCCNC(=O)c1ccc(Cc2nc3ccccc3[nH]2)cc1	/	-7%	/	/	4.2%
Cc1cc(NC(=O)COC(=O)c2ccc(F)c(S(=O)(=O)N3CCOCC3)c2)no1	i	-3%	i	2.2e-08	1.3%
OC(COc1ccccc1)CN1C2=NCCCN2c2ccccc21 (stereo not drawn)	i	?	i	1.2e-09	1.1%
Cc1cc(N2CC(=O)N(CCc3ccccc3)C(=O)C2)n2ncnc2n1	i	-5%	i	4.3e-08	0.8%
Cc1cccc(OCCCC(=O)Nc2ccc(N3CCOCC3)cc2)c1	/	3.2µM*	/	/	-0.6%
CN(Cc1ccco1)c1ccnc(-c2cccc(C#N)c2)n1	i	8%	i	1e-09	1.6%
Cn1c(N2CCN(c3ccccn3)CC2)nc2c1c(=O)n(Cc1ccccc1Cl)c(=O)n2C	i	/	i	3.1e-09	/
Cc1cc(C)c(-c2cc(NC(=O)CSc3nncn3C)n(-c3ccccc3)n2)cc1C	i	3%	i	2.2e-08	-1.1%
Cc1onc(-c2c(Cl)cccc2Cl)c1C(=O)NC(C)(C)CO	i	-6%	i	3e-09	0.5%
CN(C)CCCNCCCNC(=O)/C(=N\O)c1ccccn1	/	0%[11.4 µM]	/	/	-1.9%
Cc1[nH]nc(-c2ccc(O)cc2O)c1-c1ccc(Cl)cc1	i	-12%	i	1.7e-08	-0.1%
CCc1cc2c(=O)c(-c3nc4ccccc4n3C)c(COCC(=O)O)oc2cc1O	/	1%	/	/	8.6%
COc1cc(OC)cc(-c2nc(-c3ccccc3)no2)c1	i	12%	i	1e-09	-0.3%
Cc1ccc(C)n1CCN1CCN(CC(=O)Nc2ccc(S(N)(=O)=O)cc2)CC1	i	-2%	i	2.3e-08	0.2%
CCCC(=O)Nc1ccc(Cl)c(NC(=O)c2cccnc2)c1	i	1%	i	1.7e-09	0.4%
COc1ccccc1-c1ccc2ncnc(N3CCOCC3)c2c1	i	?	i	6.6e-09	-2.3%

Arranged by value in A647 autofl (rising): three of the compounds above.
| SMILES | A488 autofl | A647 autofl |
| --- | --- | --- |
| COc1ccc(Oc2ncc3nc(-c4ccc(F)cc4)c(=O)n(C[C@H]4CCCO4)c3n2)cc1 | i | 1.5e-08 |
| Cc1cc(C)c(-c2cc(NC(=O)CSc3nncn3C)n(-c3ccccc3)n2)cc1C | i | 2.2e-08 |
| CSc1ccc(C2C(C#N)=C(N)Oc3cc4c(cc32)OCO4)cc1 (stereo not drawn) | i | 2.5e-08 |

Continuation:
SMILES	A488 autofl	TSHR agonist	Resorufin autofl	A647 autofl	AID923
CSc1nnc2c3ccccc3n(Cc3ccccc3)c2n1	i	?	i	2e-08	-0.1%
COCCNC(=O)c1sc2ncn(CC(=O)N3CCCCC3)c(=O)c2c1C	i	-5%[11.4 µM]	i	1e-09	0.7%
Cc1noc(C(=O)Nc2ccccc2C(F)(F)F)c1Cl	i	5%	i	1.3e-09	-0.5%
CC(NC(=O)OC1CCCCC1)N1C(=O)C2C3C=CC(C3)C2C1=O (stereo not drawn)	i	/	i	6.3e-09	0.9%
COc1ccc(S(=O)(=O)N2CCCN(Cc3cccc(F)c3)CC2)cc1	i	10%	i	3.5e-08	0.4%
CN(C)S(=O)(=O)c1ccc(C(=O)Nc2ccnn2C2CCCCC2)cc1	i	13%	i	2.7e-09	3.6%
CCOC(=O)C1CCCN(C(=O)COC(=O)C2=COCCO2)C1 (stereo not drawn)	i	3%	i	3.1e-08	-1.0%
COc1ccc(O[C@H]2C=C[C@@H](c3ccccc3)O[C@H]2COC(=O)CC/C(C)=N\O[C@@H](C)CN2CCCc3nc(C)c(C)cc32)cc1	/	11%[11.4 µM]	/	/	1.7%[11.5 µM]
CC(NC(=O)C(NC(=O)C1CCCN1C(=O)OC(C)(C)C)C(C)C)C(N)=O (stereo not drawn)	i	1%	i	1.2e-08	0.6%
COC(=O)[C@@]1(Cc2ccc(OC)cc2)[C@H]2c3cc(C(=O)N4CCCC4)n(Cc4nc5ccccc5[nH]4)c3C[C@H]2CN1C(=O)c1ccccc1	/	?	/	/	7.9%
N#Cc1cccc(-c2ccc3ncnc(NCc4cccnc4)c3c2)c1	i	-1%	i	1.6e-08	-0.9%
C=CCn1c(COc2cccc3ccc(C)nc23)nnc1SCC(=O)OC	i	14%	i	1.8e-09	3.6%
COc1ccc(OCCN2C(=O)NC(C)(c3ccc(C)cc3)C2=O)cc1 (stereo not drawn)	i	19%	i	1e-09	-0.6%
CCOC(=O)C1CCCN(C(=O)Cc2c(F)cccc2Cl)C1 (stereo not drawn)	i	18%	i	1e-09	7.1%
COc1cccc(-n2ccnc2SCC(=O)Nc2ccccc2)c1	i	-1%[11.4 µM]	i	7.8e-09	-0.2%
C/C(=C\C(=O)c1ccc(F)cc1)Nc1ccc(N2CCOCC2)cc1	i	-4%	i	1.2e-09	-2.8%
Brc1c(CSc2nnc(-c3ccco3)o2)nc2ccccn12	i	3%	i	1e-09	0.7%
CCc1ccc(C2CC(c3cccc(Cl)c3)n3nc(N)nc3N2)cc1 (stereo not drawn)	/	3%	/	/	-6.8%
Nc1cc([N+](=O)[O-])ccc1C(=O)O	/	-4%	/	/	1.4%
CC(=O)c1c(C)[nH]c(C(=O)OCCCCN2C(=O)c3ccccc3C2=O)c1C	i	/	i	1e-09	0.7%
CN(CC(=O)N1CCN(c2ccccc2)CC1)S(=O)(=O)c1cnc[nH]1	i	-4%	i	1.3e-08	-1.3%
Cc1cccc2cc(CN(Cc3cccs3)C3(c4nnnn4C4CCCC4)CCCC3)c(=O)[nH]c12	i	10%	i	1.9e-08	-0.7%
O=C(c1ccccc1)C(O)c1ccccc1 (stereo not drawn)	/	7%	/	/	1.5%
O=C1[C@@H]2[C@H](Cc3ccc(O)cc3)N[C@]3(C(=O)Nc4ccccc43)[C@@H]2C(=O)N1c1ccc(F)cc1	i	12%	i	1e-09	0.0%
O=P(O)(CCc1ccccc1)CN1CCCCC1	/	-3%	/	/	0.7%
(more compounds)
SMILES	A488 autofl	TSHR agonist	Resorufin autofl	A647 autofl	AID923
CCOC(=O)Cc1csc(NC(=O)c2csc(C)c2)n1	i	?	i	2.2e-08	-0.3%
O=C(c1cc2c(s1)-c1ccccc1OC2)N1CCCC1	/	22%	/	/	8.9%
COc1ccc(N(C)S(=O)(=O)c2c(C)[nH]c(=O)[nH]c2=O)cc1	i	-4%	i	1e-09	0.5%
O=C(OCc1c(F)cccc1Cl)c1cnccn1	i	7%	i	4e-08	-3.0%
O=C(c1ccc(CS(=O)(=O)c2c(Cl)cccc2Cl)o1)N1CCN(c2ccccn2)CC1	/	14%	/	/	-1.8%
COc1ccc(Nc2ncnc3c2oc2ccccc23)cc1	/	10%	/	/	3.2%
COc1ccc(C(=O)N2CCC3(CCCN(Cc4ccncc4)C3)CC2)cc1	i	-2%	i	2.7e-08	0.5%
Cc1cc(NC(=O)c2cccc(S(=O)(=O)N3CC(c4ccccc4)CC3=O)c2)no1 (stereo not drawn)	/	8%	/	/	-2.1%
O=C(NCC1CCCO1)C1CCCN1C(=O)NC1CCCCC1 (stereo not drawn)	i	0%	i	1e-09	0.8%
COc1ccc2c(C)c(Cl)c(=O)oc2c1	/	8%	/	/	1.0%

The list is partial; the hit share may differ from the screen's.
